# B2AR ag: human beta-2 adrenergic receptor agonism by FAP; P07550; Am2.2-beta2AR cells, FAP receptor internalization, flow cytometry; reference of the scale not given here; response, % (no concentration beside the values); 0.43% of 340,000 active; AID 504454;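 active = response above a set limit, near 3 SD of response in nonfluorescent compounds, cut at about 42% in these data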;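 also: stock transfer was 100 nL into about 11 µL; a reference agonist was the positive control; negative values mostly stem from fluorescent compounds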
# Target sequence (P07550 whole entry, looked up): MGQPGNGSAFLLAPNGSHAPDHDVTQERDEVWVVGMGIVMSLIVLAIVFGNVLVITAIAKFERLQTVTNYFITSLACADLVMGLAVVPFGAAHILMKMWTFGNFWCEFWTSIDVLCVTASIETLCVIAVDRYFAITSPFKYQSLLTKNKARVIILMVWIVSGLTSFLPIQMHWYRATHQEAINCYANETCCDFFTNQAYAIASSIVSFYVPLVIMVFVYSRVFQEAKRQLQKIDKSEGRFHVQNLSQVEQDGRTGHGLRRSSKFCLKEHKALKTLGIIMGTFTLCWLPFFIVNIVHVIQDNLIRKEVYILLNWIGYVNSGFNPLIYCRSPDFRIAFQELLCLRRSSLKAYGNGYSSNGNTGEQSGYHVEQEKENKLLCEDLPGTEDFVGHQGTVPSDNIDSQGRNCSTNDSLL
# Ecoli rRNA inh: inhibits bacterial ribosomal RNA function over humanized ribosomes. E. coli WT GFP vs humanized-ribosome RFP mutants, fluorescence, 24 h; stronger effect = lower value; DMSO median 0, no signal -100. GFP signal change (wild-type ribosome), % (no concentration beside the values). 1.6% of 350,000 active. AID 720706;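 active = significant combined selectivity score with lowered wild-type GFP, culture density cut under 30%, mutant RFP and density less affected; inactive = any of these conditions unmet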; also: one replicate is shown; some compounds called inactive have numbers as strong as hits
# T cruzi inh: T. cruzi replication inhibition; T. cruzi beta-gal in NIH3T3, luminescence, 90 h; 1.4% of 300,000 active; inhibition, % (concentration not given with the values);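 active = mean inhibition across valid replicates above about 55%, limit read from the data; inconclusive = mean below that limit but half or more replicates reach it; inactive = mean below it, under half of replicates reach it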;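 also: signal also drops with host cell toxicity which is not excluded here; 0% = plate median of DMSO wells and 100% = zero luminescence signal; higher percent means less beta-gal luminescence so fewer parasites; stock transfer was 50 nL into about 50 µL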
# Bfl-1 A1 inh: inhibitors of the anti-apoptotic protein A1, read as caspase activation; caspase activation, % (concentration not given with the values); 0.066% of 330,000 active; MEF A1-2A-BIM cells, Caspase-Glo 3/7 luminescence, 3 h; percent of clofoctol response, vehicle zero;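 active = over half of replicate activation scores above 10%, or exactly half above 10 with the replicate mean above 10; inconclusive = replicate mean below 10 yet half the replicates above 10; inactive = over half of replicates below 10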;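 also: wells of about 30 µL received 50 nL stock; many hits fall short of the cut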
# LANA-H2B inh: blocks KSHV LANA binding to histone H2A/H2B. Q9QR71. cell-free LANA-H2A/H2B peptide, fluorescence polarization. inhibition, % (no concentration beside the values). 0.6% of 320,000 active. AID 2629; in the data active = inhibition mostly above about 10%, no sharp cut-off; inactive = mostly below about 6.7%;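 also: stock transfer was 7.5 nL into about 10 µL; 0% = median of vehicle wells and 100% = median of positive control wells; one replicate is shown; the record names a cut of 25% in any replicate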
# ALR inh: human ALR oxidase inhibition via reduced H2O2; P55789; 3.8% of 290,000 active; purified ALR, DTT oxidation, H2O2 HRP-luminol luminescence; inhibition, % (no concentration beside the values);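 active = mean and each replicate at 75% or more; inconclusive = only one of the two met; inactive = neither met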;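 also: stock transfer was 7.5 nL into about 7.5 µL; 0% = neutral wells and 100% = wells with inactivated enzyme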
# Target sequence (P55789 whole entry, looked up): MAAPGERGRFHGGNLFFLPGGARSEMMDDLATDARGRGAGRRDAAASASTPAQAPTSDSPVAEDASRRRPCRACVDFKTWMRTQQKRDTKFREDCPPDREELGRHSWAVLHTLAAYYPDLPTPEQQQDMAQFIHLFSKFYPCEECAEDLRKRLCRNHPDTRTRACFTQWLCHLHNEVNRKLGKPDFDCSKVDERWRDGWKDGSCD
# Beta apoptosis: blocks beta cell apoptosis; INS-1E cytokine-induced death, ATP luminescence, 48 h; percent of positive-control rescue, neutral wells zero; protection from apoptosis, % (concentration not given with the values); 0.8% of 300,000 active;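 active = all replicates at 75% or more, or half of them and the mean; inconclusive = half reach 75% but not the mean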;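 also: 0% = cytokine-treated negative control wells and 100% = positive control rescue; higher means more ATP so stronger rescue from cytokine killing; wells of about 40 µL received 100 nL stock; the first replicate is given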
# Calb FLC: affects C. albicans growth with fluconazole. C. albicans CaCi-2 (fluconazole-resistant clinical isolate) + fluconazole, Alamar Blue growth, 48 h. growth inhibition, % (test concentration not listed). 0.57% of 300,000 active. AID 1979;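 active = most replicates above 75%; inconclusive = exactly half above 75%; inactive = most below 75%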;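 also: all wells also contain fluconazole at 8 µg/ml as a sub-toxic cotreatment; 0% = median of DMSO wells and 100% = median of geldanamycin control wells; wells of about 8 µL received 7.5 nL stock; the first replicate is given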
# Ecoli rRNA inh OD600: recorded beside Ecoli rRNA inh, whose call it bears; OD600 change, %; measured here: OD600 growth;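 optical density of the mix in the first replicate; 0 = DMSO median and -100 = no signal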
# Ecoli rRNA inh RFP: second read-out of Ecoli rRNA inh, no call of its own (marks repeat the call); RFP signal change, %; measured here: RFP humanized mutant strains;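 first replicate; 0 = DMSO median and -100 = no signal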
# * = called active by the depositor; ? = inconclusive; nt = no result given.
SMILES,B2AR ag,Ecoli rRNA inh,Ecoli rRNA inh OD600,Ecoli rRNA inh RFP,T cruzi inh,Bfl-1 A1 inh,LANA-H2B inh,ALR inh,Beta apoptosis,Calb FLC
Cc1c(NS(=O)(=O)c2ccc(Cl)c(C(=O)OC(C)C(=O)NCc3ccco3)c2)c(=O)n(-c2ccccc2)n1C (centres undefined),0,-2,-8,-4.0,-8,1.0,-0.3,1,2,-10
O=S(=O)(Nc1cccc(-c2cn3cccnc3n2)c1)c1ccc(Cl)cc1,-11,-48,-48,-9.5,-15,-0.3,-2.1,-12,-7,1
COc1cc(NC(=O)Cn2c(=O)n(CC3CCCO3)c(=O)c3cc(OC)c(OC)cc32)cc(OC)c1 (centres undefined),-6,1,5,-2.6,-4,0.4,4.0,-5,-1,1
C=CCN1c2ccc(Br)cc2C(=O)CS1(=O)=O,-6,-21,-23,11,nt,1.1,-1.8,5,-6,nt
CCCCCOc1ccc(C(=O)C(c2ccccc2)N2CCOCC2)cc1 (centres undefined),-6,nt,nt,nt,19,0.2,-4.0,-6,1,30
C[C@H](NC(N)=O)C(=O)OCC(=O)NCc1cccs1,-3,28,21,0.0,8,0.2,-2.2,-13,-4,22
O=C(NC1CCCC1)c1ccc(COCC(F)(F)C(F)F)o1,-11,8,18,-5.0,-13,0.1,3.1,98*,-4,-7
CC(OC(=O)/C=C/c1ccc2ccccc2n1)C(=O)NCc1ccccc1 (centres undefined),0,10,16,0.0,-10,-0.1,5.8,52,-7,34
COC(=O)Cn1c(=O)n(CCc2ccccc2)c(=O)c2c3c(sc21)CCCC3,-18,-7,4,-4.6,46,0.0,1.7,-6,0,?
O=C(c1cc2ccccc2o1)N1CCN=C1SCc1cccnc1,-1,0,4,-5.7,7,0.5,1.2,99*,-11,-9
CSCc1c(C(=O)NCCc2ccccn2)oc2ccccc12,-1,-7,-20,0.9,6,0.0,-0.8,-1,3,-4
Cc1ccc(-n2c(SCC(=O)N3CC(=O)Nc4ccccc43)nc3ccccc3c2=O)cc1C,0,-8,-10,6.5,6,1.1,1.9,-1,-3,25
N/C(CCN1CCOCC1)=N/O,-8,nt,nt,nt,-16,0.0,-3.1,12,-2,-9
c1ccc(-c2csc(Nc3ccccn3)n2)cc1,-6,-19,-17,-6.3,14,-6.3,-2.4,14,3,-19
Cc1ccc(CN(C(=O)Cn2nnc3ccccc32)C(C(=O)NCc2ccco2)c2cccs2)cc1 (centres undefined),9,nt,nt,nt,16,0.0,-1.5,-2,nt,8
CC(C)C[C@H](N)c1nnc(SCc2ccc(Cl)cc2)o1,-7,-23,-21,-2.8,0,0.7,3.7,-14,-1,9
Cc1csc(NC(=O)C2C3C=CC(C3)C2C(=O)O)n1 (centres undefined),-4,nt,nt,nt,-25,-0.1,3.5,-3,2,17
Cc1ccc(CNC(=O)COC(=O)c2cc(C)oc2C)cc1,-1,3,15,1.5,nt,0.4,2.9,-4,-7,nt
Cc1cc(C(=O)NC(C)c2ccc3c(c2)OCO3)cs1 (centres undefined),-5,nt,nt,nt,-2,0.4,-4.7,-4,-6,-16
CCC(C)Sc1nc(O)cc(=O)[nH]1 (centres undefined),4,nt,nt,nt,-8,0.9,-2.9,21,-8,-14
COc1cc(OC)cc(C(=O)Nc2cccc3c2CCCC3)c1,-4,5,2,0.8,11,0.1,8.6,-8,5,-15
CC(C)C(=O)NC(=S)Nc1ccccc1C(F)(F)F,1,nt,nt,nt,-21,1.1,3.7,-22,-5,-15
COc1cc(C(=O)NC2CCCCC2)ccc1OCc1ccc(Cl)cc1Cl,3,7,10,-1.2,33,-0.6,-0.8,-1,-1,-22
CCCOc1ccc(/C=C/C(=O)Nc2ccc([N+](=O)[O-])cc2C)cc1,-5,nt,nt,nt,2,0.1,-3.6,-1,-5,-6
C=CCN1C(=O)C2(C(C(=O)c3ccc(C)o3)=C(O)C(=O)N2CCCN2CCOCC2)c2ccccc21 (centres undefined),-3,nt,nt,nt,-32,0.2,-2.8,-2,8,-8
CC(=O)OC[C@]1(OC(C)=O)C[C@@]23CC[C@H]4[C@@](C)(CCC[C@@]4(C)C(=O)O)[C@@H]2CC[C@@H]1C3,-2,-14,-9,-6.3,0,-0.8,3.2,11,-13,-3
CC(=O)Nc1ccc(S(=O)(=O)NCC(=O)OCc2cc(=O)oc3ccc4ccccc4c23)cc1,-6,nt,nt,nt,-8,0.2,1.3,-21,-1,-3
O=C(COC(=O)c1cc(-c2cccs2)nc2ccccc12)NCc1ccco1,-6,nt,nt,nt,-11,-0.6,-2.0,8,-6,nt
Cc1ccc2c(c1)C1(SCCS1)C(=O)N2,1,nt,nt,nt,-1,1.1,-0.2,4,-8,6
COc1ccc(OC)c(NC(=O)NCc2ccc(F)cc2)c1,3,nt,nt,nt,17,0.8,-4.3,-21,-7,-5
Cc1ccc(CNC(=O)CCc2c(C)[nH]c(=O)c(C#N)c2C)cc1,-1,12,12,-0.6,3,0.6,0.8,-3,-10,3
COCc1cc(=O)n2[nH]c(-c3ccco3)cc2n1,11,14,-1,3.2,-16,-0.1,3.8,44,-1,-4
O=C(COC(=O)CCN1C(=O)C2CC=CCC2C1=O)NCCc1ccc(F)cc1 (centres undefined),1,-7,-2,1.0,nt,-0.5,2.8,13,-3,nt
CCCCOc1ccc(C(=O)N2CCCC2C(=O)O)cc1 (centres undefined),-4,nt,nt,nt,7,-0.5,-0.9,-3,-4,1
CCn1ccnc1CNC(=O)c1ccc2oc(C(C)C)nc2c1,-2,12,16,-1.5,8,?,1.1,-1,-3,-4
O=C(Nc1nccs1)c1cn(-c2ccccc2)nc1-c1ccncc1,-10,18,15,2.9,15,1.5,6.3,-6,0,-4
Cn1c(N)c(C(=O)COC(=O)c2ccccc2C(F)(F)F)c(=O)n(C)c1=O,10,-3,0,-2.5,nt,0.3,-3.3,-6,3,nt
O=c1oc(-c2ccccc2)nc2c1cnn2-c1ccccc1,11,nt,nt,nt,-11,-1.0,0.8,1,-7,-9
COc1ccc(N2CCN(S(=O)(=O)c3c(C)[nH]c(C)c3C(=O)N3CCCC3)CC2)cc1,5,10,11,0.1,-3,-0.5,-13,49,0,31
Cc1ccc(NC(=O)CS(=O)CC(=O)N(C(C)C(=O)NC2CCCCC2)C(C)(C)C)cc1 (centres undefined),-6,11,7,1.5,-1,-0.5,-3.1,-18,-2,4
O=C(COC(=O)c1ccco1)Nc1ccc(Br)cc1,2,-5,-5,2.7,-9,-0.1,-0.9,-2,nt,-8
Cc1sc2ncnc(N3CCC(C(=O)NCC(=O)Nc4ccc(F)c(F)c4)CC3)c2c1C,6,-52,-73,-14,24,0.1,5.5,-2,-5,4
CCCCn1c(N)c(N(CCC(C)C)C(=O)C2=COCCO2)c(=O)[nH]c1=O,-14,6,-1,0.9,3,-2.1,-2.6,24,-3,1
CN(CC(=O)Nc1ccc(F)cc1)C(=O)COC(=O)CN1C(=O)NC2(CCCC2)C1=O,1,-2,0,-1.2,-13,-0.1,4.9,8,-1,-12
CCOCCOC(=O)C1=C(C)N(C)C(=O)NC1c1ccccc1Cl (centres undefined),-7,nt,nt,nt,-7,-0.2,3.0,-7,-1,2
CC1CCCC(N2C(=O)NC(NC(=O)c3ccco3)(C(F)(F)F)C2=O)C1C (centres undefined),3,nt,nt,nt,0,1.3,-0.6,-2,-6,-6
Cc1cc(C)n2c(SCC(=O)Nc3c(C)n(C)n(-c4ccccc4)c3=O)nnc2n1,-12,nt,nt,nt,-18,2.0,14,0,-1,-1
CCCCOC(=S)NC(=O)c1sc2ccccc2c1Cl,-2,nt,nt,nt,-10,0.6,-4.4,12,-4,-3
O=S(=O)(c1cnc[nH]1)N1CCc2ccccc21,-370,nt,nt,nt,-12,0.7,-83,nt,1,-3
CCOc1ncccc1C(=O)Nc1cccc(S(=O)(=O)N2CCOCC2)c1,-2,-9,-11,-1.8,nt,1.5,0.4,-3,-3,nt
CCOc1ccccc1CSc1nc2ccccc2[nH]1,-18,nt,nt,nt,13,-0.2,-1.0,-1,-1,-14
CCc1c(C)sc(NC(=O)c2cc(CC(C)C)on2)c1C#N,-2,1,2,4.2,5,0.2,0.8,2,0,3
Cc1ccc(S(=O)(=O)N(CC(=O)NCc2ccccn2)c2ccc(Cl)cc2)cc1,8,-13,-30,0.1,16,0.0,-0.8,-5,-2,2
COc1ccc(N(C)C(=O)Cc2c(C(=O)O)[nH]c3ccccc23)cc1,-1,8,3,-4.5,-15,0.6,-1.8,-5,nt,14
COC(=O)C1=C(C)N(c2cccc(Cl)c2)C(=O)C1,11,nt,nt,nt,-18,0.4,4.7,37,-4,2
Cc1cc(C)nc(NS(=O)(=O)c2ccc(NC(=O)CN3C(=O)C4CC=CCC4C3=O)cc2)n1 (centres undefined),2,10,8,-1.6,-6,-0.5,-5.4,-12,nt,-2
COc1ccc(-c2noc(C3CCCN(S(=O)(=O)c4cccc(Cl)c4)C3)n2)cc1OC (centres undefined),-2,-7,-5,-8.3,21,-1.1,1.6,nt,nt,-6
Cc1cccnc1NC(=O)NC(=O)c1ccc(C(C)(C)C)s1,-3,9,-14,1.0,5,-0.2,-1.5,2,nt,-8
COc1ccc(OCc2nc(C#N)c(N3CCN(c4ccc(OC)cc4)CC3)o2)cc1,-8,-5,-7,14,17,nt,nt,nt,nt,-4
CCN(CC)C(=O)c1ccccc1NC(=O)c1ccccc1C,-3,10,15,3.9,-1,0.4,-3.9,-8,nt,15

# The list goes on.
SMILES,B2AR ag,Ecoli rRNA inh,Ecoli rRNA inh OD600,Ecoli rRNA inh RFP,T cruzi inh,Bfl-1 A1 inh,LANA-H2B inh,ALR inh,Beta apoptosis,Calb FLC
O=C(CC(Nc1ccc(Cl)cc1)C(=O)O)c1ccccc1 (centres undefined),12,nt,nt,nt,10,-3.8,0.5,60,1,-52
Cc1ccc(/C=N/n2c(COc3ccccc3)n[nH]c2=S)s1,4,-11,-7,-0.9,-6,-1.1,2.3,8,-1,42
CCCCCCSc1nnc2[nH]c(=O)cc(N)n12,-6,-15,-10,-1.9,-11,0.1,3.9,12,-1,94*
Cc1ccc(NC(=O)C[n+]2cc(-c3ccc(C)cc3)n3c2CCC3)cc1,-3,nt,nt,nt,nt,0.5,1.9,nt,6,-24
Cn1c(=O)oc2cc(S(=O)(=O)N3CCN(c4ccc(F)cc4)CC3)ccc21,-78,nt,nt,nt,-13,-1.4,0.8,-8,-2,-5
Cc1nc(-c2ccc(S(=O)(=O)N3CCN(c4cccc(C)c4C)CC3)cc2)co1,0,2,2,7.3,9,-0.2,8.8,2,-5,12
O=C(c1nsnc1-c1ccccc1O)N1CCCCC1,0,nt,nt,nt,-18,0.2,1.0,8,nt,-5
CC(=O)Nc1ccc(S(=O)(=O)Nc2cccc(C(=O)Nc3ccccc3C(=O)O)c2)cc1,-6,11,8,11,26,-0.5,2.6,4,-8,-19
COCCCNC(=S)NCCNc1nc2cc(C)c(C)cc2cc1C#N,7,-20,-17,1.8,43,-1.3,5.6,51,-3,6

# This is a subset (hit frequency here may not be typical).
